Compound activity deposited in PubChem BioAssay by National Center for Advancing Translational Sciences (NCATS).
PINK1 expr mod: changes PINK1 expression. PINK1 immunofluorescence, high-content cytometry, 24 h. Potency, µM (top dose mostly 76.6 µM), inactives show at the top dose activation (PINK1 increase), hits mostly activators. 0.2% of 410,000 active. AID 624263; active = well fitted activation curve with a large enough effect; inconclusive = small, poorly fitted or top-dose-only effect; inactive = flat fitted curve, though single readings scatter; cell line not stated here;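 further: potency means the concentration at half of the fitted maximal effect; % of control where 0% means no effect; nearly all actives have a fitted effect of over 65% in size; a mitochondrial uncoupler was the plate control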
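Stable cell line treated 24 h with compounds at 5 concentrations (CCCP controls), then fixed and immunostained for PINK1 plus nuclear and cell stains; PINK1 immunofluorescence quantified by laser-scanning microplate cytometry.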
gsp antagonist: gsp mutant antagonism; gsp-mutant cells, cAMP HTRF, 30 min; control for the full effect not named in the record; Potency, µM (top dose mostly 76.9 µM), for the others: top-dose activity change, negative = inhibition, hits mostly inhibitors; 0.4% of 340,000 active; active = falling curve of any shape with a large fitted effect; inconclusive = falling curve, mostly with a smaller effect; inactive = flat or rising curve; cell line not stated here;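 further: intracellular cAMP measured with PDE inhibitor Ro 20-1724 present during compound exposure; potency means the concentration at half of the fitted maximal effect; on the % scale 0 is the no-effect control and ±100 the full control effect; nearly all actives have a fitted effect of over 65% in size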
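HTRF cAMP measurement after 30 min RT detection following 30 min, 37C compound treatment alongside […] (added as 300 uM solution) in G418-selected cells seeded at 2000/well and grown 16–24 h.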
Menin-MLL FL inh: menin-MLL binding inhibition, fluorescein peptide | Fluorescence polarization, fluorescein-MLL peptide displacement from menin | FP activity change, % at 61.4 µM | 290,000 tested, under 10 active | AID 1766; inconclusive = falling polarisation curve, or a change in total fluorescence; inactive = total fluorescence flat and polarisation flat or rising; no compound was filed as active; the % refers to the polarisation; negative = inhibition;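 further: % of control where 0% means no effect; inhibitors lower the polarisation; unlabelled MLL peptide was the positive control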
D2 ag: agonists of human D2 dopamine receptor (beta-arrestin); P14416; DiscoveRx PathHunter D2 beta-arrestin, luminescence, 90 min; 100% = 57 uM dopamine signal; activation, % (test concentration not listed); 0.084% of 360,000 active; AID 624465; in the data active = activation above about 40%; inconclusive = about 15% to 40%; inactive = below about 15%; further: compound concentration not given in the record; the text of the record calls up to 30% inactive
Target sequence (P14416 whole entry, looked up): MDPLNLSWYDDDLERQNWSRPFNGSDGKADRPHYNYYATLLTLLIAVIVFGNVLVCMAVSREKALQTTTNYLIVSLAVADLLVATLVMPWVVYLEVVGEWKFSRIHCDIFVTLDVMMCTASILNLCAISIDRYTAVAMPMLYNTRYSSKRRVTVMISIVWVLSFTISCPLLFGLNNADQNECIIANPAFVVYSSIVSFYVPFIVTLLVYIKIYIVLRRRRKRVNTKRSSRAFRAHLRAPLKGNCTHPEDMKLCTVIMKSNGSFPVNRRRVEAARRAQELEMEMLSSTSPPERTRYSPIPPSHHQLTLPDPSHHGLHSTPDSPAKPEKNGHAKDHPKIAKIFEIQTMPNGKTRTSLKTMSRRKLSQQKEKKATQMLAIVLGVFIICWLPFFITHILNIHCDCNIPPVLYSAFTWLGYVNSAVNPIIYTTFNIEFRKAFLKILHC
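DiscoveRx PathHunter D2 beta-arrestin cells (2,100/well) attached overnight, then compound-stimulated 90 min at 37 C in HBSS/10 mM HEPES/0.1% Tween-20 buffer; beta-galactosidase complementation read by luminescence after 1 h at ambient temperature. Dopamine 57 uM final (EC100) as control.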
Sfp PPTase inh: inhibitors of Bacillus subtilis Sfp phosphopantetheinyl transferase. Q9F4F7. Biochemical Sfp PPTase activity, qHTS. Potency, µM, inactives show max response, negative = inhibition, actives largely listed as inhibitors. 3.5% of 310,000 active; active means well fitted inhibition curve with a large enough effect; inconclusive means small, poorly fitted or top-dose-only effect, or another doubt; inactive means no such curve, though single readings can be large or run the other way;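 further: the enzyme is Sfp with the accession as filed and its product quenches rhodamine fluorescence; potency means the concentration at half of the fitted maximal effect; 0% = enzyme reaction without inhibitor and -100% = no enzyme wells; top concentration of the series not given in the record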
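Buffer: 50 mM Hepes-Na pH 7.6, 10 mM MgCl2, 0.01% Nonidet P-40, 0.01% BSA. Enzyme 15 nM, pre-exposed to compound 15 min; substrates then added and fluorescence change tracked over 30 min.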
ClpP mod: qHTS Assay for Activators of ClpP; ATP-dependent Clp protease proteolytic subunit (Bacillus subtilis (strain 168)), P80244; purified B. subtilis ClpP, FRET peptide cleavage, 20 min; Potency, µM (highest dose often 57.5 µM), for inactives: top-dose activity change, negative = active; 1.9% of 340,000 active; AID 651965, 2013; active = well fitted falling curve with a large enough effect; inconclusive = small, poorly fitted or top-dose-only effect; inactive = no such curve, though single readings can be large or run the other way; further: potency means the concentration at half of the fitted maximal effect; the source files actives as falling curves though it sought activators and does not explain the sign; nearly all actives have a fitted effect of over 65% in size; many hits overshoot -100%
Target sequence (P80244 whole entry, looked up): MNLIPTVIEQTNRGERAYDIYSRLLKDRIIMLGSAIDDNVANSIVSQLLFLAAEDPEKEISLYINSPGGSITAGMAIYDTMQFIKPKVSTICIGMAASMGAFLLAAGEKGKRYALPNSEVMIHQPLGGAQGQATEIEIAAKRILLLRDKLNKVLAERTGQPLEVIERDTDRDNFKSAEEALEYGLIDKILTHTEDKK
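FRET quenching reversal measured ClpP activation: 10 microg/mL B. subtilis ClpP at pH 8 with the FRET-FV decapeptide, read at 430 nm after 320 nm excitation. The 20-min minus 0-min signal was scaled between DMSO/no-enzyme wells and ADEP (5.8 microM final).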
gsp agonist: gsp mutant agonism | 0.13% of 340,000 active | Potency, µM (doses to about 76.9 µM), for inactives: top-dose activation (cAMP increase), usual class: activators | gsp mutant cells, cAMP HTRF, 30 min; control for the full effect not named in the record | AID 624287; active = well fitted activation curve with a large enough effect; inconclusive = small, poorly fitted or top-dose-only effect, or another doubt; inactive = no such curve, though single readings can be large or run the other way; cell line not stated here;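 further: phosphodiesterase inhibitor Ro 20-1724 added with compounds to block cAMP breakdown; potency means the concentration at half of the fitted maximal effect; nearly all actives have a fitted effect of over 60% in size; about a fifth of the inactives were tested at one dose only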
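Cells stably selected in G418 were plated at 2000/well, grown 16-24 hr, then given compounds in DMSO with the PDE inhibitor […] (300 uM solution added) for 30 min at 37C; cAMP was read by HTRF.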
Starred values were filed as active, the others as inactive; ? = inconclusive; / = not tested or not shown; & = joins results of further samples; [ ] = remark or other dose.

SMILES | PINK1 expr mod | gsp antagonist | Menin-MLL FL inh | D2 ag | Sfp PPTase inh | ClpP mod | gsp agonist
CSCC[C@H](NS(=O)(=O)c1ccc(C)cc1)C(=O)N1CCC(C(=O)N[C@@H](Cc2ccccc2)C(=O)O)CC1 | 3.1% | 3% | 0.2 | -2.9 | 27% | -2.6% | /
Cc1ccc(/C=N\NC(=O)Cc2noc3ccccc23)cc1 | 14% | 6% | 3.4 | 4.7 | 1% | / | -7%[15.4 µM]
O=C(Nc1cccc(Cn2cccn2)c1)c1cc2c(s1)CCCC2 | -3.0%[38.3 µM] | -25% | 4.6 | -1.0 | 1% | -4.2% | 11%
COc1ccc(N2CCN(C(=O)COC(=O)Cc3cccc(OC)c3)CC2)cc1 | 0.3% | -10% | / | 1.1 | / | -4.2% | -18%
OCCC1CN(Cc2c(F)cccc2Cl)CCN1C1CCCCC1 (centres undefined) | 2.6% | 6% | 3.4 | -8.9 | 23% | / | ?
CCCS(=O)(=O)NC(=O)C1(C)CCCN(C(=O)C2(c3ccc(Cl)cc3)CCCC2)C1 (centres undefined) | -1.1% | / | / | 4.0 | / | -1.4% | /
COc1ccc(C(=O)c2ccc(Cl)cc2)cc1 | 2.1% | -6%[15.4 µM] | 2.9 | -3.2 | -9% | 1.4% | 11%
CCc1ccc(NC(=O)c2ccc3nc(N)sc3c2)cc1 | 7.3% | 15% | 8.3 | -0.7 | ? | -4.4% | 13%
COCOc1ccc(/C=C2/Oc3cc(OCOC)cc(OCOC)c3C2=O)c(OCOC)c1 | 3.6% | ? | / | -1.1 | / | -8.8% | /
COc1cc(CC(=O)Nc2cc(S(=O)(=O)N3CCOCC3)ccc2N2CCCC2)cc(OC)c1OC | 2.0% | 2% | / | -0.6 | / | -3.9% | -6%
Cc1ccccc1-c1cc(C(=O)NCc2ccco2)nn1CC1CC(c2cccc([N+](=O)[O-])c2)=NO1 (centres undefined) | -0.6% | -17% | / | -1.3 | / | -0.3% | /
CN(Cc1ccccc1)C(=O)c1ccc(S(=O)(=O)N(C)c2ccccc2)cc1 | 4.2% | -13% | / | 2.9 | / | 0.0% | 0%
Cc1nc(SCC(=O)N(C)C2(C#N)CCCCC2)c2ccccc2n1 | 0.2% | -2% | / | -1.6 | / | 1.6% | ?
CNS(=O)(=O)c1cccc(C(=O)OCC(=O)c2ccc(S(=O)(=O)N3CCCCC3)cc2)c1 | -3.3% | -9% | / | -8.8 | / | -2.9% | 30%
C/C(=N\Nc1nc(-c2ccccc2O)nc2ccccc12)c1ccccc1 | 9.1% | -2% | -2.5 | -3.8 | 3% | / | 19%
CCOC(=O)N1CCN(Cc2nnc(-c3ccccc3C)o2)CC1 | -1.3% | 1% | / | -4.0 | -21% | 0.9% | -13%[15.4 µM]
Nc1nc2ccc(NC(=O)c3ccco3)cc2s1 | -0.4% | 3% | -2.2 | -6.6 | -29% | / | 3%[15.4 µM]
Cc1ccc(Cn2ccsc2=NC(=O)COC(=O)C(C)C)cc1 | 0.5% | 1% | / | 1.4 | 14% | -0.6% | 14%
COc1cc2cc(Oc3ccc4ccc(=O)oc4c3)c(=O)oc2cc1O[C@@H]1O[C@H](CO)[C@@H](O)[C@H](O)[C@H]1O | 0.8% | 4% | / | -0.5 | / | 4.0% | /
Cc1ccc(S(=O)(=O)Nc2ccccc2C(=O)N2CCCC2)cc1 | -1.8% | 7% | / | -8.8 | 8% | 1.3% | -4%
O=C(NC1CCCCC1)[C@H](O)[C@@H](O)C(=O)NC1CCCCC1 | 1.8% | 5% | -0.2 | -0.9 | 10% | 0.6% | -64%[inhibitor]
COc1ccc(C(=O)c2c(NC(C)=O)sc3c2CCN(C(=O)OC(C)(C)C)C3)cc1 | 0.9% | ? | 4.6 | 5.5 | -7% | / | -4%[15.4 µM]
O=C(CCOc1ccccc1)Nc1ccnn1C1CCN(Cc2ccc(O)cc2)CC1 | -0.4% | 9% | / | -1.0 | 23% | 0.9% | 4%
COc1ccc2c(c1)cc(C)c1nnc(SCC(=O)N3CCN(C(=O)c4ccco4)CC3)n12 | 1.3%[38.3 µM] | -8% | -1.1 | -0.7 | -9% | 0.2% | -7%
c1cnc(-c2noc(CN3CCN(C4C5CC6CC(C5)CC4C6)CC3)n2)cn1 (centres undefined) | -0.9% | 5% | 3.0 | 1.7 | 15% | -2.9% | -2%

Following part.
SMILES | PINK1 expr mod | gsp antagonist | Menin-MLL FL inh | D2 ag | Sfp PPTase inh | ClpP mod | gsp agonist
Cc1c2cnn(CC(=O)NCCN3CCOCC3)c(=O)c2c(C)n1Cc1ccc(F)cc1 | -0.1% | 11% | -4.3 | 1.1 | 3% | -14% | -15%
CS(=O)(=O)N(CC(=O)Nc1cccc(F)c1)Cc1ccccc1 | -13%[38.3 µM] | 0% | -4.5 | 0.2 | 14% | -2.5% | 13%
Cc1ccc(N2C(=O)C(c3c(C)[nH]n(-c4ccccc4)c3=O)(C(F)(F)F)C3=C2CC(C)(C)CC3=O)cc1 (centres undefined) | -0.6% | ? | 0.1 | -3.5 | 17% | -0.7% | -41%[inhibitor]
Cc1ccc(N2C(=O)/C(=C/c3cccnc3)SC2=S)cc1 | 11% | 3% | 3.0 | -5.4 | 2% | 0.8% | 4%[15.4 µM]
CC(Oc1ccccc1)C(=O)NC1C(=O)N2C1SC(C)(C)C2C(=O)O (centres undefined) | -0.8% | 11% | -1.9 | 1.5 | 18% | / | 17%
CC1(C)Cc2c(sc3nc(SCC(=O)N4CCOCC4)nc(N)c23)CO1 | -1.1% | 4% | -0.3 | -3.4 | -10% | ? | ?
COc1ccc(OCC(=O)Nc2ccc3c(c2)CCC3)cc1 | 0.0% | 5% | / | -3.4 | / | -0.9% | 22%
CC1(c2ccc3c(c2)OCCCO3)NC(=O)N(CC(=O)NCCc2ccccc2)C1=O (centres undefined) | 3.0% | 10% | / | 0.0 | / | 1.0% | -42%[inhibitor]
CN1C[C@H]2CON(C)[C@H]2C[C@H]1c1cccc(N2CCOCC2)c1 | 0.8% | 5% | / | -2.0 | / | 2.7% | /
CC(=O)Oc1cccc(Nc2ncnc3ccccc23)c1 | 0.4% | 2% | -1.5 | 0.9 | 18% | -0.9% | ?
O=C(Nc1nnc([C@@H]2C[C@H](O)[C@@H](CO)O2)s1)NC1CCCCC1 | 0.0% | / | / | -2.7 | / | -0.6% | /
CCCc1nc2n[nH]c(N)c2c2c1COC(C)(C)C2 | -3.1%[38.3 µM] | 5% | 1.1 | -2.8 | 14% | -0.3% | 23%
C/C(=N\Nc1nc(N2CCOCC2)nc(N2CCOCC2)n1)c1cccs1 | -1.5% | 3% | -4.6 | 1.4 | 4% | / | 17%[15.4 µM]
Oc1cc(O)c2c(c1)O[C@H](c1ccc(O)c(O)c1)[C@H](O)C2 | -1.7% | 3% | 6.4 | -2.5 | -2%&-5%&-5% | 0.7% | -13%
COc1ccc(N2CCN(CCCn3ccc(NC(=O)OCc4ccccc4)nc3=O)CC2)cc1 | 1.7% | / | / | -9.1 | / | 0.0% | -24%
CC(C)c1onc(C(=O)Nc2cccc(O)c2)c1[N+](=O)[O-] | -0.8% | -1% | -2.3 | 9.3 | -2% | / | 13%
COc1ccc(CCC(C)NC2C3CC4CC(C3)CC2C4)cc1 (centres undefined) | -0.9%[38.3 µM] | -4% | 6.3 | -1.2 | 16% | -0.7% | 8%
O=C(NC12CC3CC(CC(C3)C1)C2)N1CCN(S(=O)(=O)c2ccc(Cl)cc2)CC1 | 6.4%[38.3 µM] | 1% | 6.6 | 0.4 | 20% | 1.6% | ?
COc1ccc(S(=O)(=O)N(CCc2ccccc2)CC(=O)N/N=C/c2ccc3c(c2)OCO3)cc1 | 3.3% | -9% | 2.1 | -1.4 | 3% | -19% | ?
CN(C(=O)c1ccc(NC(=O)Cc2ccc(NC(=O)C3CCN(C(=O)C4CC4)CC3)cc2)cc1)C1CC1 | -0.3% | 8% | / | -0.9 | / | -0.4% | -26%
CCc1ccc(NC(=O)CCn2ccnc2C)cc1 | 0.0% | 18% | 0.3 | -2.0 | 2% | 0.8% | -6%
COc1ccc(CNC(=O)c2cc(C(C)=O)c[nH]2)cc1 | -0.1% | -2% | -3.2 | 0.7 | 5% | / | -6%
Cc1ccc(CNC(=O)Cc2nc3nc(C)cc(C)n3n2)cc1 | 1.7% | 8% | 1.8 | -0.5 | 15% | -1.8% | 14%[15.4 µM]
O=C(OCc1ccccc1)N1CCC2CC1c1cc(-c3ccc4c(c3)OCO4)ccc12 (centres undefined) | 3.2% | -11% | / | -2.0 | / | ? | /
CC(=O)Oc1ccc(C(=O)Nc2ccccc2NC(=O)c2ccc(OC(C)=O)cc2)cc1 | 2.3% | 25µM* | -0.2 | -5.8 | 3% | 0.3% | -2%

Next part:
SMILES | PINK1 expr mod | gsp antagonist | Menin-MLL FL inh | D2 ag | Sfp PPTase inh | ClpP mod | gsp agonist
CN(Cc1ccco1)C(=O)CN1C(=O)NC2(CCCC2)C1=O | 0.9% | 10% | / | 8.0 | / | / | -11%
O=C(/C=C/Nc1ccc(F)cc1F)c1ccco1 | -0.5% | -11% | 4.9 | -2.4 | 4% | / | 3%[15.4 µM]
CS(=O)(=O)c1ccc(-c2sc3ccccc3c2C#CCCO)cc1 | -0.1% | -4% | / | 1.1 | / | 3.9% | /
COc1ccc(CC2(CO)CCN(C(C)COc3ccccc3)CC2)cc1 (centres undefined) | 0.4% | 19% | -0.7 | 49* | 3% | / | -14%[15.4 µM]
CCN(CC(=O)NCc1ccc(F)cc1)CC(=O)Nc1ccccc1-c1ccccc1 | 2.0% | -10% | 0.1 | -1.7 | 2% | / | 1%[15.4 µM]
COCCNC(=O)C1CCCN(Cc2ccccc2-c2ccccc2)CC1 (centres undefined) | 1.5% | / | / | 1.1 | / | -0.3% | /
COc1ccc(C(=O)NC(=S)N2CC(C)OC(C)C2)cc1 (centres undefined) | 0.2% | 7% | -0.8 | -1.5 | 16% | -2.1% | 8%
Cc1nn(CC(=O)Nc2ccc(Cl)cc2)c(=O)c2cc(-c3ccccc3)nn12 | 6.3% | 3% | / | 1.1 | -8% | -4.8% | ?
CCOC(=O)c1ccccc1NC(=O)CSc1nc(N)cc(=O)[nH]1 | -1.5% | -9% | 0.8 | 0.4 | -5% | / | 4%[15.4 µM]
